# Compound activity: PubChem BioAssay, several laboratories
# Beta2AR agonist = agonists of human beta-2 adrenergic receptor inducing internalization. hit rate 0.43% among 340,000. response, % (test concentration not listed). Am2.2-beta2AR cells, FAP receptor internalization, flow cytometry; reference of the scale not given here. AID 504454. P07550;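 active means response above a set limit, near 3 SD of response in nonfluorescent compounds, cut at about 42% in these data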;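 further: stock transfer was 100 nL into about 11 µL; a reference agonist was the positive control; negative values mostly stem from fluorescent compounds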
# Target sequence (P07550 whole entry, looked up): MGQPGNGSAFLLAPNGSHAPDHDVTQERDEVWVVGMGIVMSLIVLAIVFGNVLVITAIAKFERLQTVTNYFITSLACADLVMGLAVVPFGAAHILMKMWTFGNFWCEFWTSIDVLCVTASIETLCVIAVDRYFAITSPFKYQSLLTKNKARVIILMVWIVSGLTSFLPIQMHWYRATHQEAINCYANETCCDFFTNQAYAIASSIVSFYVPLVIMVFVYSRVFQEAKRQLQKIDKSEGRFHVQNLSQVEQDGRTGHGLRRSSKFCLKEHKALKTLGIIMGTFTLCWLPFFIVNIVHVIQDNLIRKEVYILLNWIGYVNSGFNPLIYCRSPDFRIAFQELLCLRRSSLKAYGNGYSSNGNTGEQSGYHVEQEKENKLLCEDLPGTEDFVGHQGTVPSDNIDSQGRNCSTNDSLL
# Calb FLC = affects C. albicans growth with fluconazole; C. albicans CaCi-2 (fluconazole-resistant clinical isolate) + fluconazole, Alamar Blue growth, 48 h; growth inhibition, % (no concentration beside the values); hit rate 0.57% among 300,000; AID 1979;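 active means most replicates above 75%; inconclusive means exactly half above 75%; inactive means most below 75%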;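 further: all wells also contain fluconazole at 8 µg/ml as a sub-toxic cotreatment; 0% = median of DMSO wells and 100% = median of geldanamycin control wells; wells of about 8 µL received 7.5 nL stock; the first replicate is given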
# LANA-H2B inh = blocks KSHV LANA binding to histone H2A/H2B | cell-free LANA-H2A/H2B peptide, fluorescence polarization | AID 2629 | Q9QR71 | hit rate 0.6% among 320,000 | inhibition, % (concentration not given with the values); in the data active means inhibition mostly above about 10%, no sharp cut-off; inactive means mostly below about 6.7%;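 further: stock transfer was 7.5 nL into about 10 µL; 0% = median of vehicle wells and 100% = median of positive control wells; one replicate is shown; the record names a cut of 25% in any replicate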
# T cruzi inh = T. cruzi replication inhibition; hit rate 1.4% among 300,000; T. cruzi beta-gal in NIH3T3, luminescence, 90 h; inhibition, % (test concentration not listed);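 active means mean inhibition across valid replicates above about 55%, limit read from the data; inconclusive means mean below that limit but half or more replicates reach it; inactive means mean below it, under half of replicates reach it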;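 further: signal also drops with host cell toxicity which is not excluded here; 0% = plate median of DMSO wells and 100% = zero luminescence signal; higher percent means less beta-gal luminescence so fewer parasites; stock transfer was 50 nL into about 50 µL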
# Beta cell apopt = blocks beta cell apoptosis. INS-1E cytokine-induced death, ATP luminescence, 48 h; percent of positive-control rescue, neutral wells zero. protection from apoptosis, % (no concentration beside the values). hit rate 0.8% among 300,000;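 active means all replicates at 75% or more, or half of them and the mean; inconclusive means half reach 75% but not the mean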;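 further: 0% = cytokine-treated negative control wells and 100% = positive control rescue; higher means more ATP so stronger rescue from cytokine killing; wells of about 40 µL received 100 nL stock; the first replicate is given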
# Ecoli rRNA inh = inhibits bacterial ribosomal RNA function over humanized ribosomes | E. coli WT GFP vs humanized-ribosome RFP mutants, fluorescence, 24 h; hits give low values; DMSO median 0, no signal -100 | GFP signal change (wild-type ribosome), % (no concentration beside the values) | hit rate 1.6% among 350,000 | AID 720706;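 active means significant combined selectivity score with lowered wild-type GFP, culture density cut under 30%, mutant RFP and density less affected; inactive means any of these conditions unmet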; further: one replicate is shown; some compounds called inactive have numbers as strong as hits
# ALR inh = blocks human ALR sulfhydryl oxidase activity; P55789; purified ALR, DTT oxidation, H2O2 HRP-luminol luminescence; inhibition, % (no concentration beside the values); hit rate 3.8% among 290,000; AID 485317;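 active means mean and each replicate at 75% or more; inconclusive means only one of the two met; inactive means neither met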;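 further: stock transfer was 7.5 nL into about 7.5 µL; 0% = neutral wells and 100% = wells with inactivated enzyme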
# Target sequence (P55789 whole entry, looked up): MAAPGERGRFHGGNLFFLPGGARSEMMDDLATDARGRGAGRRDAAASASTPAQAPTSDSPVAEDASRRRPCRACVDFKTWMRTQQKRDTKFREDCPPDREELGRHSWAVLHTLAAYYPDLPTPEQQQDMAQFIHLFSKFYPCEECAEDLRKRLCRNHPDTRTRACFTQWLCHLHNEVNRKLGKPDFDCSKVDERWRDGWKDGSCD
# Bfl-1 A1 inh = inhibitors of the anti-apoptotic protein A1, read as caspase activation | MEF A1-2A-BIM cells, Caspase-Glo 3/7 luminescence, 3 h; percent of clofoctol response, vehicle zero | caspase activation, % (concentration not given with the values) | hit rate 0.066% among 330,000;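 active means over half of replicate activation scores above 10%, or exactly half above 10 with the replicate mean above 10; inconclusive means replicate mean below 10 yet half the replicates above 10; inactive means over half of replicates below 10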;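 further: wells of about 30 µL received 50 nL stock; many hits fall short of the cut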
# Ecoli rRNA inh OD600 = recorded beside Ecoli rRNA inh, whose call it bears; OD600 change, %; measured here: OD600 growth;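 optical density of the mix in the first replicate; 0 = DMSO median and -100 = no signal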
# Ecoli rRNA inh RFP = recorded beside Ecoli rRNA inh, whose call it bears; RFP signal change, %; measured here: RFP humanized mutant strains;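 first replicate; 0 = DMSO median and -100 = no signal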
# Active calls of the source: *; u = inconclusive; x = not tested or not shown. The list is partial (hit frequency here may not be typical).
# Under each structure: Beta2AR agonist	Calb FLC	LANA-H2B inh	T cruzi inh	Beta cell apopt	Ecoli rRNA inh	Ecoli rRNA inh OD600	Ecoli rRNA inh RFP	ALR inh	Bfl-1 A1 inh
CC(C)Cc1nc2oc3c(=O)[nH]cnc3c2c2c1CCC2
→ -4	-4	0.2	1	-4	x	x	x	x	-0.3
Oc1ccc(N=Nc2n[nH]c(-c3ccc(Br)cc3)n2)cc1
→ 5	23	0.9	24	0	-9	19	13	-17	-0.7
COc1cc2c(cc1OC)C1=C(C#N)CCC(=NC(=O)c3ccco3)N1CC2
→ -7	0	-1.6	1	-4	2	-4	-3.7	-3	0.4
Nc1nc(NC2CCCCC2)nc(NCCO)c1[N+](=O)[O-]
→ 1	16	-0.7	7	-2	22	5	0.9	5	-0.1
CC(C)Cn1c(NCCN(C)C)nc2c1c(=O)[nH]c(=O)n2C
→ -5	-10	-1.8	11	-2	x	x	x	11	0.8
CN1C(=O)[C@@H]2[C@@H]3C[C@@H]([C@H]4ON=C(c5ccc(Cl)cc5)[C@@H]34)[C@@H]2C1=O
→ -11	-5	1.5	-5	1	6	4	10.0	-65	0.0
COc1ccccc1N1CCN(c2ccc3ccccc3n2)CC1
→ 10	-1	-4.0	30	x	-15	-34	1.3	-1	-3.2
O=C(NCCCN1CCN(c2ccccc2F)CC1)C1CCN(S(=O)(=O)N2CCOCC2)CC1
→ -2	4	6.5	10	-2	x	x	x	-17	0.4
COc1ccc(CCNC(=O)C2CC(=O)N(C3CCCCC3)C2)cc1OC (stereo unspecified)
→ 2	10	5.2	-29	1	-1	3	-1.5	-20	-0.3
Cc1cc(NC(=O)CSc2nnnn2-c2ccc(C)c(Cl)c2)no1
→ 4	2	0.3	6	-2	3	10	-1.3	2	-0.3
CCOC(=O)[C@H]1[C@H]2COc3ccc(Br)cc3[C@@H]2N2C(=O)c3cc(OC)c(OC)cc3NC(=O)[C@@]12C
→ 6	x	0.5	x	-12	1	-2	-5.7	x	1.2
O=C(COC(=O)c1ccc(Br)o1)c1ccc(S(=O)(=O)N2CCCCC2)cc1
→ -3	x	-2.3	x	-1	x	x	x	0	-0.2
Cc1cc(F)ccc1NC(=O)c1cccnc1
→ -4	-5	4.8	-7	-3	15	6	-2.2	x	-0.3
COc1ccc(NC(C)C(=O)N/N=C/c2ccc([N+](=O)[O-])s2)cc1 (stereo unspecified)
→ 5	u	-5.7	65*	5	3	7	1.9	36	0.5
COc1ccccc1OCc1nc(-c2cccc([N+](=O)[O-])c2)no1
→ -1	-6	12	15	3	-3	6	0.5	-7	-1.4
O=C1C=C(c2ccccc2)C(=O)N1Nc1ccccc1
→ -5	-34	-0.8	-18	x	x	x	x	21	-0.3
O=C(Nc1ccccc1N1CCOCC1)C1Cc2ccccc2CN1C(=O)c1ccco1 (stereo unspecified)
→ 0	-1	-4.2	19	-10	x	x	x	1	0.2
O=C(CCCN1C(=O)/C(=C/c2cccc(Br)c2)SC1=S)Nc1ccccn1
→ -5	14	-3.0	18	-21	x	x	x	-10	0.0
CS(=O)(=O)c1ncc(CO)n1Cc1ccccc1
→ 1	27	1.2	-2	-4	21	23	5.7	0	0.2
Cc1cc(C[n+]2ccsc2N)c2ncccc2c1
→ -3	0	-3.2	0	-9	11	-2	-9.2	-9	0.4
CCOC(=O)c1nnn(-c2nonc2-n2cccc2)c1-c1cccc([N+](=O)[O-])c1
→ 6	2	-1.4	17	-10	1	8	4.3	-15	1.2
CCc1n[nH]c2c1/C(=N\O)CC(c1ccccc1)C2 (stereo unspecified)
→ 3	-15	-0.2	6	2	x	x	x	x	0.2
O=[N+]([O-])c1cccc(NC(=S)N2CCc3ccccc32)c1
→ 7	-34	1.9	x	-2	-52	-46	-16	10	0.8
CCN1CCN(C(=O)C(Cc2ccccc2)NC(=O)c2ccc(Cl)c(S(=O)(=O)N(C)C)c2)CC1 (stereo unspecified)
→ -4	x	-0.5	x	2	x	x	x	-5	1.7
O=C(NC1CCCc2ccccc21)c1ccc(Cl)nc1 (stereo unspecified)
→ -1	5	0.5	8	-6	x	x	x	1	-1.2
Cc1cc(C)n2nc(SC(C)C(=O)N(C)c3ccccc3)nc2n1 (stereo unspecified)
→ 2	x	-257	x	-6	13	3	-1.3	2	0.8
CC1CC2(CC(C)(C(=O)CSc3nc4ccccc4s3)OC2=O)C(=O)O1 (stereo unspecified)
→ 1	5	0.0	6	-1	x	x	x	98*	-0.7
O=C(O)CCC(=O)NCC1OCCc2ccccc21 (stereo unspecified)
→ 7	6	3.0	1	-7	x	x	x	3	-0.3
CSc1ncccc1C(=O)Nc1cccc(S(=O)(=O)N(C)c2ccccc2)c1
→ -2	x	0.5	x	5	-3	-12	-1.6	x	-0.7
COc1ccc(N2CC(C(=O)N/N=C/c3c[nH]c4ccccc34)CC2=O)cc1 (stereo unspecified)
→ -13	-10	2.1	-2	-8	2	4	0.9	15	-0.6
Oc1nc(-c2ccc(Br)cc2)n2ccncc12
→ -1	-7	-2.2	-14	0	4	9	-1.9	26	0.4
CCC(c1nnc(SCC(=O)Nc2nnc(-c3ccccc3)o2)o1)N(C)C (stereo unspecified)
→ 6	0	-3.4	7	-3	x	x	x	16	0.0
Cc1cccc(C)c1NC(=O)CN1C(=O)COc2ccccc21
→ -2	6	13	-10	-6	-2	22	-2.0	-1	0.4
COc1ccccc1/C=N/Nc1nccnc1Cl
→ -3	-16	-0.2	-5	11	17	3	2.4	18	-6.5
CC(C)c1ccc(NC(=O)CSc2n[nH]c(=O)n2-c2cccnc2)cc1
→ -4	u	3.5	-28	-2	0	10	-0.6	2	-0.4
CC1CCc2sc(C(=O)Nc3ccc(N4CCOCC4)cc3)cc2C1 (stereo unspecified)
→ 11	12	-1.7	16	11	-32	-40	-5.5	9	0.0
CO/N=C/C(C(C)=O)C(=O)Nc1ccc(Cl)cc1Cl (stereo unspecified)
→ -4	1	-3.6	-7	x	4	-2	-0.9	2	-0.1
CCCOC(=O)N[C@@H]1C(=O)N2C(C(=O)OCCC)=C(C)CS[C@H]12
→ -2	1	4.4	-7	-4	11	4	-7.0	21	0.6
CN(c1ccc(C(=O)NCCCn2ccnc2)cc1)S(C)(=O)=O
→ 2	-3	-1.7	-4	5	9	15	1.0	3	0.1
CCc1cc2cccc(C)c2nc1SCC(=O)Nc1nonc1C
→ 5	-27	2.2	16	-1	8	5	-0.7	3	1.5
C/C(=N\O)c1cccc(Br)c1
→ 5	1	-0.5	-2	-4	-25*	18*	8.5*	-36	0.5
COc1cccc(/C=N/NC(=O)c2ccc3nc[nH]c3c2)c1
→ 0	-3	4.2	2	4	13	4	0.3	93*	0.9
CCCNC(=O)C(Cc1ccc(Cl)cc1)NC(=O)c1ccc(-c2ccccc2)cc1 (stereo unspecified)
→ -4	x	-2.4	x	24	6	16	-12	-2	0.6
Cc1cc(C(=O)NCC(c2ccco2)N2CCCC2)c2ccccc2n1 (stereo unspecified)
→ 4	x	8.6	x	6	7	7	-1.2	-6	0.8
COc1ccccc1CNC(=O)C(=O)c1cn(CC(=O)N2CCCC2)c2ccccc12
→ 8	-4	-2.3	5	-2	13	12	6.6	1	0.1
CCCCC(=O)Nc1nc2c(OC)cc([N+](=O)[O-])cc2s1
→ 2	2	1.7	-1	11	12	5	-0.3	7	-0.4
Cc1cc(C)c(S(=O)(=O)N(C)CC(N)=O)c(C)c1
→ 3	16	1.4	-33	0	x	x	x	-1	0.3
Fc1ccc(N2CCN(Cc3cnc(Oc4ccc(Br)cc4)s3)CC2)cc1
→ 4	0	5.2	-11	-2	x	x	x	1	-0.9
Cc1ccc(N(Cc2cc3ccc(C)cc3[nH]c2=O)S(=O)(=O)c2ccccc2)cc1
→ -10	4	-5.6	13	4	2	13	0.5	-6	1.3
Cc1ccc([N+](=O)[O-])cc1-c1[nH]c(-c2ccc(O)c(O)c2)nc1-c1ccccc1
→ -1	112*	-1.4	-40	x	x	x	x	97*	-0.1
CC(C)(C)c1ccc(S(=O)(=O)N2CCNC(=O)C2)cc1
→ 0	x	-3.9	x	-8	5	4	0.7	-2	0.4
Cc1ccc(S(=O)(=O)N(CC(=O)N2CCOCC2)C2CCCCC2)cc1
→ 0	21	-0.5	-10	-3	x	x	x	-10	1.0
CCCCc1c(C)nn(-c2nnc3c4ccccc4n(CC)c3n2)c1C
→ -9	0	-5.1	31	45	x	x	x	-6	0.2
Nc1nonc1-n1nnc(C(=O)N/N=C/c2ccc(Br)cc2)c1-c1ccc2c(c1)OCO2
→ 9	15	-2.3	-7	2	11	8	2.1	0	0.2
CC(=O)c1ccc(S(=O)(=O)N2CCN(C(C)=O)CC2)cc1
→ -2	12	-0.3	-7	-1	5	9	1.3	3	0.5
Clc1cccc(Oc2ncc(CN3CCOCC3)s2)c1
→ 0	-6	4.8	-1	-1	x	x	x	0	1.1
CCC1(c2ccc(F)cc2)NC(=O)N(CC(=O)Nc2cc(S(=O)(=O)N(C)C)ccc2Cl)C1=O (stereo unspecified)
→ -10	-2	3.1	-2	8	-12	-22	-0.5	-6	0.7
CS(=O)(=O)N(CC(=O)O)c1cccc(Cl)c1
→ -4	-3	-1.9	-16	1	x	x	x	-1	-0.1
Fc1ccc(C2=Nn3c(nnc3-c3n[nH]c4c3CCC4)SC2)cc1
→ -26	-11	0.3	13	-10	x	x	x	-1	-0.7
O=C(Nc1ccc([N+](=O)[O-])cc1)Nc1ccc(Cl)cc1F
→ 6	-14	-4.8	-8	108*	-50	-68	-14	-16	-0.1

# Continuation:
# Under each structure: Beta2AR agonist	Calb FLC	LANA-H2B inh	T cruzi inh	Beta cell apopt	Ecoli rRNA inh	Ecoli rRNA inh OD600	Ecoli rRNA inh RFP	ALR inh	Bfl-1 A1 inh
CCCCc1cc(=O)oc2cc(C)cc(OCC(=O)NCc3cccnc3)c12
→ 4	3	4.1	1	7	-6	-1	-2.2	-1	-2.4
CC(C)C(NS(=O)(=O)c1ccc2c3c(cccc13)C(=O)N2)C(=O)O (stereo unspecified)
→ -7	2	1.7	-5	0	17	9	4.2	-26	0.1
COc1ccc(O)c(C(=O)/C=C/c2cc3ccccc3o2)c1
→ -1	0	-21	-21	1	x	x	x	-16	0.2
CCCCC1CC(/C(C)=N/NC(N)=O)OC1=O (stereo unspecified)
→ -7	-20	-0.6	-37	-4	x	x	x	6	1.5
COc1ccc(C(=O)OC(COc2ccccc2)Cn2ccnc2)cc1 (stereo unspecified)
→ 0	-2	4.7	47	1	x	x	x	-2	-0.2
O=C(Cn1cnc2c(nnn2Cc2ccccc2)c1=O)NCc1ccccc1Cl
→ 21	8	3.1	-1	4	3	3	-2.3	4	-0.1
